# Autofluor counter = counter-screen for toxin protease inhibitors: compound fluorescence; compound autofluorescence counterscreen, microsphere flow cytometry; hits give high values; fluorescence intensity (no concentration beside the values); 3.1% of 360,000 active;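 active means at least 3 SD above the mean of all compounds, about 16000 in these data; inconclusive means too few beads counted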;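 further: 100 nL of 1 mM stock went into each well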
# Sa ugtP lethal = compounds lethal to S. aureus RN4220 ugtP deletion mutant; OD600 growth, 16 h; some inactives read as strong as hits; 0.54% of 330,000 active; growth inhibition, % (test concentration not listed); AID 1259309;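 active means z-score under -3 and OD600 up to 0.15 on both plates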;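 further: plate controls were untreated wells for no effect and antibiotic for full effect; wells of about 80 µL received 100 nL stock; the first replicate is given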
# BJeLR lethal = BJeLR cell viability loss; BJeLR (HRASV12) viability, CellTiter-Glo ATP luminescence, 48 h; reference of the scale not given here; inhibition, % (test concentration not listed); 0.17% of 300,000 active; AID 1554;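 active means replicate mean above 50%; inconclusive means above 50% but judged a plate artefact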;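 further: 50 nL library stock added to about 25 µL; numbers are from one replicate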
# PrP 5UTR inh = suppresses PrP 5' UTR mRNA reporter expression; cell-based PrP 5' UTR mRNA reporter, plate reader; inhibition, % (concentration not given with the values); 0.35% of 340,000 active;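 active means every replicate at 50% or more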;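 further: 0 = median of the neutral control wells; tested in H4 reporter cells; numbers are from one replicate; inactives centre near -14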
# Mtb hypoxia inh = Mtb hypoxia fluorescent reporter inhibition | M. tuberculosis hypoxia-regulated fluorescent reporter, fluorescence | fluorescence inhibition, % (concentration not given with the values) | 0.1% of 300,000 active | AID 1159583;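 active means 35 to 45% if threefold the growth effect, above 45% if 1.5-fold the growth effect; inactive means the rest, general growth blockers included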;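 further: wells of about 50 µL received 100 nL stock; 0% = vehicle wells and 100% = reference inhibitor wells; whole bacteria with a GFP reporter of the hypoxia response; strong numbers were not always called active; many hits fall short of the cut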
# RN4220 kill = kills Staphylococcus aureus RN4220; inhibition, % (concentration not given with the values); 0.33% of 330,000 active; S. aureus RN4220 growth, OD600, 16 h;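 active means z-score of -3 or lower and OD600 up to 0.18 on both plates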;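 further: plate controls were untreated cells for no effect and reference antibiotic for full effect; stock transfer was 100 nL into about 80 µL; one replicate is shown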
# Mtb hypoxia inh growth = further read-out of Mtb hypoxia inh, marked with its call; growth inhibition, %; measured here: M. tuberculosis growth (absorbance);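 0% = vehicle and 100% = reference antibiotic; read after six days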
# Active calls of the source: *; ? = inconclusive; . = not tested or not shown.
SMILES,Autofluor counter,Sa ugtP lethal,BJeLR lethal,PrP 5UTR inh,Mtb hypoxia inh,Mtb hypoxia inh growth,RN4220 kill
CCc1c(C)c(C#N)c2nc3ccccc3n2c1NC,2945,10,-5,-15,6,-8,1.0
CCC(C)N(C(=O)COC(=O)c1cn(CC)c2nc(C)ccc2c1=O)C1CCS(=O)(=O)C1 (configuration not stated),?,-1,3,-19,4,4,-1.7
CC(=O)N1CC(C)Oc2ccc(S(=O)(=O)NC(CC(=O)O)c3ccc(C)cc3C)cc21 (configuration not stated),4275,-7,2,-2,-10,2,-0.6
O=C(CSc1ccccn1)N/N=C/c1ccccc1[N+](=O)[O-],2500,.,5,-34,.,.,.
CCOC(=O)N1CCN(S(=O)(=O)c2ccc(OC)c(Cl)c2)CC1,3138,3,4,-5,7,5,3.4
c1ccc(CN2CCC(Nc3nc(-c4cccnc4)nc4ccccc34)CC2)cc1,10468,-5,-18,-2,-7,7,-5.1
COc1ccc(NS(=O)(=O)c2ccc(Cl)c(N)c2)cc1Br,3762,-14,-2,0,-2,9,3.8
CCOc1c(Cl)cc(/C=N/NC(N)=S)cc1OC,1998,.,-1,-1,.,.,.
Cc1ccc(C(=O)NCc2ccco2)cc1S(=O)(=O)Nc1cccc(Cl)c1,21942*,4,2,-4,0,-3,1.4
C/C=C1\COC(C(=O)NCc2ccncc2)(C(F)(F)F)C=C1C=C1CCCCC1 (configuration not stated),3147,.,11,-25,.,.,.
O=C1CN(c2nc3ccccc3n3cnnc23)CC(=O)N1CCc1ccccc1,6040,-6,-28,-15,-8,-11,5.4
O=C(Nc1cccnc1)c1ccc(NS(=O)(=O)c2cc([N+](=O)[O-])ccc2Cl)cc1,5353,9,1,-21,-2,8,0.4
CC(C)(c1ccccc1)c1ccc(OCCCNCCO)cc1,2274,-12,5,-5,24,16,4.2
COC(=O)c1ccc(C(=O)OC)c(NC(=S)N2CCN(c3ccc(F)cc3)CC2)c1,10855,-6,6,-16,9,-2,3.8
CN1C(=S)SC(N(O)C(=O)NC2CCCCC2)C1(C)C (configuration not stated),21404*,5,-2,-9,5,9,0.6
COCCSc1ccccc1C(=O)Nc1ccccc1C(C)C,4302,4,7,-34,1,3,-2.4
Cc1nc2c(N=Nc3ccccc3F)c(N)nn2c(N)c1C#N,4523,-3,-1,-32,15,0,3.0
COCCN(C(=O)COC(=O)/C(=C/c1ccccc1)NC(C)=O)c1c(N)n(Cc2ccccc2)c(=O)[nH]c1=O,4428,4,-5,-6,2,-1,-3.6
Cc1ccccc1C(=O)N1CCN(c2ccc(NC(=O)c3ccc4c(c3)OCO4)cc2)CC1,3818,5,42,16,5,2,1.4
CN(C)C(=O)c1ccc(Nc2ncnc3sc4c(c23)CCCCC4)cc1,3040,-3,-8,-14,8,10,-0.6
CCC(/C=N/NC(=O)C(=O)N/N=C/C(CC)CC)CC,2679,.,13,-23,.,.,.
CC(C)NC(=O)c1onc(CSc2cccc3ccccc23)c1C(=O)O,3387,9,-4,-3,14,6,16
CCCOc1ccccc1/C=C(\C#N)C(=O)Nc1cccnc1,4318,-2,-6,-54,0,14,-1.1
COc1ccc(Cl)cc1N1C(=O)CC(Sc2ccccc2N)C1=O (configuration not stated),3902,1,-7,2,-9,-6,1.0
COc1cc(/C=N/NS(=O)(=O)c2ccc(C)c([N+](=O)[O-])c2)ccc1O,4135,.,-3,-21,.,.,.
CC(=O)Cc1cc2cc([N+](=O)[O-])ccc2oc1=O,5451,5,1,.,2,9,3.9
CCC(C)C(NC(=O)OC(C)(C)C)C(=O)NC(Cc1ccccc1)C(=O)OC (configuration not stated),2965,1,-1,-7,17,5,-7.9
CC(C)CC(=O)N1CCN(C(=O)CCC2CCCC2)CC1,2757,-6,.,-20,.,.,-1.7
N#Cc1ccccc1OCC(=O)Nc1nnc(C2CC2)s1,6787,2,.,-23,3,0,7.0
NS(=O)(=O)c1ccc(CCNC(=O)CSc2ccccc2)cc1,4695,0,-5,-14,.,.,-0.2
CN(C)CCNc1nc2c(c(=O)[nH]c(=O)n2C)n1CCCc1ccccc1,5027,-12,10,-28,7,1,0.7
Cc1c(C(=O)N2CCC(Cc3ccccc3)CC2)cccc1[N+](=O)[O-],2722,0,6,4,10,6,4.5
COc1ccc(CCNC(=O)CSCc2ccc([N+](=O)[O-])cc2)cc1OC,2119,5,-3,-17,.,.,6.1
C=CCn1c(Cc2cccs2)nnc1SCC(=O)c1cccc(Br)c1,4020,-4,2,-17,0,9,27
CCCCN(CC)C(=O)Cn1ncc2c3ccccc3n(CCC)c2c1=O,3830,16,5,-23,6,10,0.2
COc1cc(S(=O)(=O)NC2CCCCC2C)ccc1Cl (configuration not stated),2112,-9,.,-17,.,.,0.3
NS(=O)(=O)c1ccc(NC(=O)c2ccc3c(c2)CCN3S(=O)(=O)c2ccccc2)cc1,4417,0,22,-12,-1,1,-2.1
Cc1ccc(C(=O)NCC(=O)OCC(=O)c2c(N)n(C)c(=O)n(C)c2=O)cc1C,4015,3,.,-2,17,7,5.6
CN(Cc1nc2ccccc2n1C)S(=O)(=O)c1ccc(F)cc1,2445,-2,.,-13,.,.,2.8
COc1ccc(Nc2nc(C)cc(=O)[nH]2)c(OC)c1,6489,8,-9,-37,11,0,3.4

# By substructure, those above containing a thiophene ring, fused or not (two)
SMILES,Autofluor counter,Sa ugtP lethal,BJeLR lethal,PrP 5UTR inh,Mtb hypoxia inh,Mtb hypoxia inh growth,RN4220 kill
CN(C)C(=O)c1ccc(Nc2ncnc3sc4c(c23)CCCCC4)cc1,3040,-3,-8,-14,8,10,-0.6
C=CCn1c(Cc2cccs2)nnc1SCC(=O)c1cccc(Br)c1,4020,-4,2,-17,0,9,27

# (further entries)
SMILES,Autofluor counter,Sa ugtP lethal,BJeLR lethal,PrP 5UTR inh,Mtb hypoxia inh,Mtb hypoxia inh growth,RN4220 kill
COc1ccc(-c2nnn(CC(=O)N(CC(=O)NC3CCCC3)c3ccccc3F)n2)cc1OC,3769,4,1,-19,13,-8,-0.5
CN1C(=O)C2C3c4ccccc4C(c4ccccc43)[C@@H]2C1=O (some centres not stated),3527,-6,-7,-13,5,-1,4.8
CCOC(=O)Cn1nnc(-c2cc(OC)c(OC)c(OC)c2)n1,4133,1,2,-30,19,4,6.5
NNC(=O)CSc1cccc2cccnc12,7717,4,4,-21,6,-3,-0.7
CCCCN1CCNC[C@@H]1Cc1ccccc1,4059,.,-2,-9,.,.,.
CCOC(=O)C1C(c2ccc(OC)c(OC)c2)c2c([nH][nH]c2=O)CC1(C)O (configuration not stated),4628,-7,-4,-11,-1,3,-1.9
Cc1ccc(CNC(=O)C2CCN(S(=O)(=O)N3CCC4(CC3)OCCO4)CC2)cc1,2017,11,-7,-11,-3,4,4.3
O=C(Cn1cnc2ccccc2c1=O)NCCC(=O)Nc1ccc2c(c1)OCO2,5225,8,-20,-20,10,12,19
CCCCOC(=O)NN=C/C=C/c1ccccc1,.,2,.,.,10,8,2.9
COc1ccc(C(=O)/C=C2/Sc3cc4c(cc3N2C)OCO4)cc1,2029,0,-11,-48,0,3,-0.2

# Profiles from above. Screens in order: Autofluor counter	Sa ugtP lethal	BJeLR lethal	PrP 5UTR inh	Mtb hypoxia inh	Mtb hypoxia inh growth	RN4220 kill
# Cc1ccc(CNC(=O)C2CCN(S(=O)(=O)N3CCC4(CC3)OCCO4)CC2)cc1 across the screens: 2017	11	-7	-11	-3	4	4.3
# COc1ccc(-c2nnn(CC(=O)N(CC(=O)NC3CCCC3)c3ccccc3F)n2)cc1OC across the screens: 3769	4	1	-19	13	-8	-0.5
# NNC(=O)CSc1cccc2cccnc12 across the screens: 7717	4	4	-21	6	-3	-0.7
# CCOC(=O)Cn1nnc(-c2cc(OC)c(OC)c(OC)c2)n1 across the screens: 4133	1	2	-30	19	4	6.5

# Remaining list, next part:
SMILES,Autofluor counter,Sa ugtP lethal,BJeLR lethal,PrP 5UTR inh,Mtb hypoxia inh,Mtb hypoxia inh growth,RN4220 kill
O=C1CSC(c2ccccc2O)N1Cc1ccccc1 (configuration not stated),3947,0,13,2,-2,0,3.8
Cc1sc(N2CCN(S(=O)(=O)c3ccc4c(c3)NC(=O)CO4)CC2)nc1-c1ccccc1,5398,-7,-6,5,9,4,0.6
O=C(c1ccco1)N1CCN(c2c([N+](=O)[O-])nn(-c3ccc(Cl)cc3)[n+]2[O-])CC1,5462,9,16,-8,-2,-8,10
CCOC(=O)/C=C1\Nc2ccccc2SC1=O,6799,-8,12,-9,6,3,14
CSc1ccc(C=Nn2c(COc3ccccc3)n[nH]c2=S)cc1,.,-1,.,.,0,-3,9.5
COc1ccc(CCNC(=O)CNC(=O)c2ccco2)cc1,5543,12,-2,-9,0,8,-1.0
COc1ccccc1NC(=O)CCCN1C(=O)C2CC=CCC2C1=O (configuration not stated),5220,0,7,-12,7,10,3.2
Cc1cc(NC(=O)CSc2nc(-c3ccco3)cc(C(F)(F)F)n2)n(-c2ccccc2)n1,2559,4,35,-44,5,-4,3.4
COc1cc(/C=N\NC(=O)c2ccc(C)nc2)ccc1OC(=O)c1ccco1,1897,.,4,-26,.,.,.
COc1ccc(-c2n[nH]c(=S)n2N=Cc2cccn2C)cc1,.,4,.,.,4,-2,6.1

# Looked up above:
# COc1ccccc1NC(=O)CCCN1C(=O)C2CC=CCC2C1=O (configuration not stated) in Mtb hypoxia inh has 7
# O=C(c1ccco1)N1CCN(c2c([N+](=O)[O-])nn(-c3ccc(Cl)cc3)[n+]2[O-])CC1 in Mtb hypoxia inh has -2

# 2 entries from above, field by field.
COc1ccc(CCNC(=O)CNC(=O)c2ccco2)cc1
- Autofluor counter: 5543
- Sa ugtP lethal: 12
- BJeLR lethal: -2
- PrP 5UTR inh: -9
- Mtb hypoxia inh: 0
- Mtb hypoxia inh growth: 8
- RN4220 kill: -1.0
Cc1sc(N2CCN(S(=O)(=O)c3ccc4c(c3)NC(=O)CO4)CC2)nc1-c1ccccc1
- Autofluor counter: 5398
- Sa ugtP lethal: -7
- BJeLR lethal: -6
- PrP 5UTR inh: 5
- Mtb hypoxia inh: 9
- Mtb hypoxia inh growth: 4
- RN4220 kill: 0.6

# (more compounds)
SMILES,Autofluor counter,Sa ugtP lethal,BJeLR lethal,PrP 5UTR inh,Mtb hypoxia inh,Mtb hypoxia inh growth,RN4220 kill
CC(=O)N1CCc2cc(C(=O)CN3CCN(c4ccccc4F)CC3)ccc21,5164,.,-1,-19,.,.,.
COc1cc(NC(=S)N2CCN(S(C)(=O)=O)CC2)cc(OC)c1,5139,6,.,-1,7,10,3.2
CCOc1cc(C2NC(=O)NC(C)=C2C(=O)OC(C)CC)cc(Br)c1O (configuration not stated),8449,-1,-2,7,3,6,7.4
Cc1ccc(NC(=O)C2CCN(S(=O)(=O)c3ccccc3)CC2)cc1,4343,0,-5,-17,2,4,-2.3
C/C(C=NNC(=O)c1nn(C)c(C)c1Br)=C\c1ccccc1,.,2,.,.,8,-1,4.3
CC1(C)OC(=O)C(=CNc2ncccn2)C(=O)O1,11426,-3,-6,-10,-5,-2,1.2
COn1c(SCc2ccccc2)nc2ccccc2c1=O,5829,3,-5,-7,5,14,17
CC1CN(c2ccc([N+](=O)[O-])cc2F)CCN1C(=O)c1ccco1 (configuration not stated),5576,-1,-5,-11,13,7,-0.7
Cc1cccc(N2C(=O)CC(n3ccnc3)C2=O)c1C (configuration not stated),4034,0,-10,-17,-3,-9,1.8
